# NPYLR7 ag – activates Aedes aegypti NPYLR7 receptor; AID 1259423; HEK293T NPYLR7/Galpha15, GCaMP6s calcium fluorescence; 0.15% of 270,000 active; activation, % at 10 µM; in the data active means activation above about 40%;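 further: 0% = vehicle and 100% = reference agonist at the receptor; some compounds past the cut are filed as inactive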
# NPYLR7 ag max-min – second read-out of NPYLR7 ag, no call of its own (marks repeat the call); activation, %; measured here: Max-Min RFU normalised activation; some inactives read as strong as hits;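 span of the calcium signal over five minutes; 0% = vehicle and 100% = native peptide agonist; compound fluorescence can raise it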
# * = called active by the depositor; & = joins results of further samples. This is a subset; the hit share may differ from the screen's.
SMILES,NPYLR7 ag,NPYLR7 ag max-min
O=c1c2c3c(sc2ncn1N=Cc1ccc([N+](=O)[O-])cc1)CCCC3,-5,-10
CC1(C(=O)NS(=O)(=O)c2ccc(Cl)s2)CCN1C(=O)C1(c2ccccc2)CC1 (stereo unspecified),7,2
Cc1nnc(SCC(=O)N2CCCN(C)C3(CCN(C)CC3)C2)s1,0,-4
COc1ccc(-c2cc3n(n2)C(C(=O)Nc2ccc(C(C)=O)cc2)CC(=O)N3)cc1 (stereo unspecified),1,15
CCOc1ccc2c(=O)c(-c3ccccn3)c(C=Cc3ccco3)oc2c1,2,13
Cc1nc(N2CCN(CC(=O)NCc3ccccc3)CC2)c2c(-c3cccs3)csc2n1,-1,-1
Cc1nc(C)n(CC(C)C(=O)N(C)Cc2sccc2C)n1 (stereo unspecified),-5,-6
COc1ccc(C(=O)OCC(=O)NCC2CCCCC2)cc1F,0,3
CN(C)C(=O)c1cccc(CCNC(=O)C2COc3ccccc32)c1 (stereo unspecified),10,7
CC(NC(=O)c1ccco1)c1nc2ccccc2n1CCCOc1ccccc1 (stereo unspecified),-1,3
Cc1ccccc1C1CCCN1C(=O)c1cnn2c(C(F)F)cc(C3CC3)nc12 (stereo unspecified),-1,-5
CC(=O)c1c(C)[nH]c(C(=O)C(C)N2CCN(C(=O)C3CC3)CC2)c1C (stereo unspecified),0,-1

# The list goes on, overlapping the part above by 6 compounds.
SMILES,NPYLR7 ag,NPYLR7 ag max-min
Cc1nc(C)n(CC(C)C(=O)N(C)Cc2sccc2C)n1 (stereo unspecified),-5,-6
COc1ccc(C(=O)OCC(=O)NCC2CCCCC2)cc1F,0,3
CN(C)C(=O)c1cccc(CCNC(=O)C2COc3ccccc32)c1 (stereo unspecified),10,7
CC(NC(=O)c1ccco1)c1nc2ccccc2n1CCCOc1ccccc1 (stereo unspecified),-1,3
Cc1ccccc1C1CCCN1C(=O)c1cnn2c(C(F)F)cc(C3CC3)nc12 (stereo unspecified),-1,-5
CC(=O)c1c(C)[nH]c(C(=O)C(C)N2CCN(C(=O)C3CC3)CC2)c1C (stereo unspecified),0,-1
Cc1ccc(NC(=O)CC(=O)N2CCN(Cc3ccc4c(c3)OCO4)C(=O)C2)cc1,-13,-14
COc1ccc(-c2csc(-n3[nH]c(C)c(N=Nc4ccccc4OC)c3=O)n2)cc1,-9,-16
CC(C)=CCC/C(C)=C/CNC(=O)c1cncn1-c1ccc(-c2cc(C)cc(C)c2)cc1,0,12
Cc1ccc2nc(NCCN(C)C)sc2c1,3,0
COCCCNC(=S)Nc1sc2c(c1C#N)CCCC2,4,6
O=S(=O)(NCc1ccccc1)N1CCC(OCc2cccnc2)CC1,-1,-3
COC(=O)c1cc(-c2ccc(OC)c3ncccc23)c[nH]1,6,-3
CCC1CN(CCNC(=O)c2ccc(C(C)=O)s2)Cc2cc(OC)ccc2O1 (stereo unspecified),14,-2
CCOC(=O)CCCC(=O)N1CCC(c2nc(-c3ccc(Cl)cc3F)no2)CC1,5,7
NC(=O)c1sc2nc3c(cc2c1N)CN(Cc1ccccc1)CC3,-11,-14
CC(Sc1nc2ccccc2c(=O)n1C1CC1)C(=O)N1CCOCC1 (stereo unspecified),1,-5
Cc1cc(C2CCC2)nc(N2CCN(S(N)(=O)=O)CC2)n1,13,5

# Ordered by count of non-hydrogen atoms (falling): some entries from above
SMILES,NPYLR7 ag,NPYLR7 ag max-min
CC(C)=CCC/C(C)=C/CNC(=O)c1cncn1-c1ccc(-c2cc(C)cc(C)c2)cc1,0,12
Cc1ccc(NC(=O)CC(=O)N2CCN(Cc3ccc4c(c3)OCO4)C(=O)C2)cc1,-13,-14
CCOC(=O)CCCC(=O)N1CCC(c2nc(-c3ccc(Cl)cc3F)no2)CC1,5,7
CCC1CN(CCNC(=O)c2ccc(C(C)=O)s2)Cc2cc(OC)ccc2O1 (stereo unspecified),14,-2

# Continued:
SMILES,NPYLR7 ag,NPYLR7 ag max-min
CC1CN(Cc2ccccc2NC(=O)N(C)Cc2ccco2)CC(C)O1 (stereo unspecified),4,4
CCCCC1CN(CCC(=O)NC(c2cccnc2)C(F)(F)F)Cc2ccccc2O1 (stereo unspecified),0,-3
COc1ccc2c(c1)C(CO)CC(C)(C)O2 (stereo unspecified),2,10
CCCCC(=O)Nc1cccc(C(=O)NC2CCCN(C(=O)c3cccs3)C2)c1 (stereo unspecified),0,-1
COc1ccccc1-c1cnc(C(O)c2ccccc2)[nH]1 (stereo unspecified),-2,-4
CCCCC(=O)N1CCN(C(=O)c2cn(CC3CCCO3)cc3c(=O)n(-c4ccccc4)nc2-3)CC1 (stereo unspecified),-4,-3
CCN(C(=O)c1ccc(=O)[nH]c1)c1ccccc1C,4,2
CN(c1ccc(Br)cc1)S(=O)(=O)c1cnc[nH]1,8,12
Cn1cc(CN2CCC(CCC(=O)Nc3ccccc3)CC2)c2ccccc21,5,2
O=C(NC1CCc2ccccc21)c1ccc(-c2cc(-c3cccc(C(F)(F)F)c3)n[nH]2)cc1 (stereo unspecified),4,-1
Cc1ccc(-c2cc(CS(=O)(=O)N(C)c3ccccc3)on2)cc1,2,2
c1cc(-c2nccn2CCCn2ccnc2)ccn1,5,2
O=C(NCc1nnnn1-c1ccc(Cl)cc1)c1ccccc1S(=O)(=O)C(F)F,0,-1
O=c1[nH]nc(SCc2cccc(F)c2)n2nc(-c3ccc(F)cc3)cc12,-1,-2
CCOC(=O)CNc1c(C(C)c2ccccc2)nc2ccc(Br)cn12 (stereo unspecified),1,2
Cc1ccc(OCCN(C)Cc2nccn2C)c(C)c1,8,3
CC(C)Cc1nc(N2CCN(C(=O)Cc3cccs3)CC2)c2c(-c3cccc(C(F)(F)F)c3)noc2n1,18,8
O=C1Cc2cc(S(=O)(=O)N3CCCC3c3nc4ccccc4s3)ccc2N1 (stereo unspecified),-3,-4
CC1(C(=O)Nc2ccc(Cl)c(Cl)c2)CCN1C(=O)C1CCCCC1 (stereo unspecified),3,4
Cc1nn(C)c(C)c1NS(=O)(=O)c1ccc(Br)cc1Cl,3,13
O=C(CCc1ccsc1)Nc1nnc(C2CC2)s1,1,4
Cc1ccc(NC(=O)c2c(O)c3ccccc3n(C)c2=O)nc1,2,1
O=C(c1ccc(-c2cccc3c2OCC3)nc1)N1CCCN(c2ncccn2)CC1,18,4
O=C(NC1CC1)c1ccc(CSc2nc(N3CCOCC3)cc(C(F)(F)F)n2)cc1,6,17

# Looked up above.
# NPYLR7 ag result of Cc1ccc(NC(=O)c2c(O)c3ccccc3n(C)c2=O)nc1 reads 2
# NPYLR7 ag result of CC1(C(=O)Nc2ccc(Cl)c(Cl)c2)CCN1C(=O)C1CCCCC1 (stereo unspecified) reads 3

# Next section
SMILES,NPYLR7 ag,NPYLR7 ag max-min
CCCCN1CNc2c(C(=O)OCC)sc3nc(SC)nc1c23,-4,-3
O=C1N=c2ccccc2=C1c1sc(=S)n(NC(=O)c2ccccc2[N+](=O)[O-])c1O,12,11
CC(=O)Nc1cccc(C(=O)N2CCN(Cc3cccc(-c4noc(-c5ccco5)n4)c3)CC2)c1,-8,-11
CC(=O)Nc1c(C)nc2c(C)cccn2c1=O,5,1
COc1ccccc1N1CCN(C(=O)c2csc(CSc3nnc(-c4cccs4)n3-c3cccc(C)c3)n2)CC1,-13,-5
Cc1cc2cc(CNC(=O)C3CC3)ccc2n1C,3,-1
CCOC(=O)c1ccccc1NC(=O)CSc1c(C)cnc2c1c(=O)n(C)c(=O)n2C,6,10
CCOc1ncccc1CN1CCCC(C(=O)NCCc2ccccn2)C1 (stereo unspecified),-8,-15
CC(NC(=O)c1cc(-c2ccccc2F)nc2cc(-c3ccccc3)nn12)c1ccccc1 (stereo unspecified),5,7
O=C(Nc1ccnn1C1CCN(CCCn2cccn2)CC1)c1ccccc1Cl,-3,-5
CCOC(=O)C1CCCN(C(=O)c2c(CC(C)C)nn(-c3ccc(Cl)cc3)c2CC)C1 (stereo unspecified),-1,1
Cc1nn(Cc2cccc(Cl)c2)cc1C(=O)NC1(C#N)CC1,-24&2,-23&0
Cc1cc(NC(=O)Cn2nc(C)c([N+](=O)[O-])c2C)n(C)n1,-4,-12
Cc1c(C(=O)NCc2ccc([N+](=O)[O-])cc2)sc(=O)n1Cc1ccc(F)cc1,-6,-7
CCCc1nc(N2CCN(S(=O)(=O)c3ccc(OC)cc3)CC2)c2c(C)nn(-c3ccccc3)c2n1,1,3
CCOC(=O)c1nn(C)c(C)c1Cl,11,7
COc1ccc(N2CCN(c3ncnc4c3cnn4CCNC(=O)CC3CCCC3)CC2)cc1,-2,-3
CCOc1ccc(CN(C)CC(O)COCC2CCCO2)cc1 (stereo unspecified),3,0
Cc1ccnc(CC(C)N(C)C(=O)c2cccnc2C)c1 (stereo unspecified),4,-2
Cc1nn(-c2ccc(N3CCN(C(=O)CCc4ccccc4)CC3)nn2)c(C)c1C,-3,-9
Cc1nc2scc(C)n2c1CNCCc1ccsc1,3,-7
O=S(=O)(NCc1cn2ccsc2n1)c1ccc(Cl)cc1,-8,-15
Cc1cccc(C(=O)NCc2n[nH]c(=S)n2-c2cccc(C(F)(F)F)c2)c1,5,4
O=C(CN1CCOCC1)NCc1ccc(-c2ccc(Cl)cc2)o1,2,-2
Cc1cccc(NC(=O)CNCC2(c3ccccc3)CCOCC2)c1C,0,-1
CCCn1cc(NC(=O)c2cc3ccccc3cc2O)ccc1=O,-28,-28
Fc1cc(F)c2c(c1)CCCN2Cc1nc(-c2ccco2)no1,7,4
O=C1OC(/C=C/c2cccc(Cl)c2Cl)=NC/1=C\c1ccco1,-3,-5
O=C(c1cc2nc(-c3ccc(Cl)c(Cl)c3)cc(C(F)(F)F)n2n1)N1CCCCC1,6,3
O=C(O)CSc1nnc(CCc2ccccc2O)n1-c1ccccc1,2,2
Cc1nnc(-c2ccccc2-c2ccc(O)cc2)s1,5,4
CC(C)OCCCNC(CC(=O)Nc1ccccc1Cl)C(=O)O (stereo unspecified),-6,-7
O=C(CN1CC(O)C(N2CCCC2)C1)N(CCc1ccccc1)Cc1cccs1 (stereo unspecified),9,4
COc1ccc(Cc2nc3ccc(C(=O)N4CCN(C5CCCC5)CC4)cc3o2)cc1,3,2
O=C(Nc1cccc(Cl)c1Cl)c1cc2nc(-c3ccc([N+](=O)[O-])cc3)cc(C(F)(F)F)n2n1,7,4
Cc1ccc2ncc(C(=O)NC(C)(C)C)c(=O)n2c1,2,1
O=C(Nc1ccc2[nH]cc(CCN3CCN(c4cccc(C(F)(F)F)c4)CC3)c2c1)c1cncc(Br)c1,8,2
CC(=O)Nc1cc(C)nn1-c1nc2c(c(=O)[nH]1)CCC2,12,4
CCCCCCCC(=O)Nc1c(-c2ccc(OC)c(OC)c2)nc2cc(C)ccn12,-5,1
O=C(c1cn[nH]n1)N1CCN(C(=O)N(c2ccccc2)c2ccccc2)CC1,-1,-7
